B2AR ag – agonists of human beta-2 adrenergic receptor inducing internalization; Am2.2-beta2AR cells, FAP receptor internalization, flow cytometry; reference of the scale not given here; response, % (concentration not given with the values); 340,000 compounds, 0.43% hits; AID 504454;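 active = response above a set limit, near 3 SD of response in nonfluorescent compounds, cut at about 42% in these data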;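 also: stock transfer was 100 nL into about 11 µL; a reference agonist was the positive control; negative values mostly stem from fluorescent compounds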
Target sequence (P07550 whole entry, looked up): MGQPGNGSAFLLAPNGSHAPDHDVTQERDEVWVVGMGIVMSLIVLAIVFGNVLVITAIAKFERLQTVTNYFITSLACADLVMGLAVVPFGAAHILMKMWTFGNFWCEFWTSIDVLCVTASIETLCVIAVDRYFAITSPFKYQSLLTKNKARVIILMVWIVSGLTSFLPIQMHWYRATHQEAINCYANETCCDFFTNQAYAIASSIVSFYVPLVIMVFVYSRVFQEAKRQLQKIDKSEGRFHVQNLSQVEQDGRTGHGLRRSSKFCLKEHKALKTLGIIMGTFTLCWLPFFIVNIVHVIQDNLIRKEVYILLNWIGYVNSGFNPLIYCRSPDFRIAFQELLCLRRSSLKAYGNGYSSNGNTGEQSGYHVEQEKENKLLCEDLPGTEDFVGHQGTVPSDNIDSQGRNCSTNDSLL
Ecoli growth – E. coli growth inhibition | OD600 absorbance (test concentration not listed) | Escherichia coli growth, OD600, 23 h; hits give low values | 330,000 compounds, 0.21% hits | AID 1053175;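 active = OD600 absorbance below the run mean of sample wells minus 3.6 SD, in any replicate, cut at about 0.56 in these data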;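 also: stock transfer was 300 nL into about 60 µL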
LANA-H2B inh – blocks KSHV LANA binding to histone H2A/H2B; inhibition, % (test concentration not listed); 320,000 compounds, 0.6% hits; cell-free LANA-H2A/H2B peptide, fluorescence polarization; Q9QR71; in the data active = inhibition mostly above about 10%, no sharp cut-off; inactive = mostly below about 6.7%;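 also: stock transfer was 7.5 nL into about 10 µL; 0% = median of vehicle wells and 100% = median of positive control wells; one replicate is shown; the record names a cut of 25% in any replicate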
UCH37 inh – inhibitors of human deubiquitinating enzyme UCH37; purified proteasome/UCH37, Ub-AMC cleavage fluorescence; inhibition, % (no concentration beside the values); 330,000 compounds, 0.33% hits; AID 588478;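 active = mean of two replicates above 20%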;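 also: 0% = compound-free wells with enzyme and 100% = wells lacking proteasome; stock transfer was 100 nL into about 20 µL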
Target sequence (Q9Y5K5 whole entry, looked up): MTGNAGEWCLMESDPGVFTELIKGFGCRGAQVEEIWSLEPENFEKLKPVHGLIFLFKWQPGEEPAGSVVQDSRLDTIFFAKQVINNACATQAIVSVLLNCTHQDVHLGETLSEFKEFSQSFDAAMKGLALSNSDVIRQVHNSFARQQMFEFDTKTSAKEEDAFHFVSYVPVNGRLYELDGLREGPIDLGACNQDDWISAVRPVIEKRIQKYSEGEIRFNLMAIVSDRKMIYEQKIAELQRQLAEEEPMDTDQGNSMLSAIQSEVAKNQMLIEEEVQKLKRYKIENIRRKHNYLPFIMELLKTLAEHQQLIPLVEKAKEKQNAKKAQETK
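Material: Human UCH37 enzyme supplied as purified proteasome complex | Schedule: 30 min preincubation with enzyme, 25 min cleavage at room temperature | Detection: AMC fluorescence 355/460 nm | Measure: % inhibition of Ub-AMC cleavage fluorescence | Controls: Wells without proteasome as full block, compound-free enzyme plus substrate as uninhibited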
HNF4A DNA FP – change in binding of human HNF4 alpha to DNA. HNF4a-FITC DNA binding, fluorescence polarization, 1 h. activity change, % at 10 µM. 360,000 compounds, 0.3% hits. AID 1224865; in the data active = activity change above about 30%, passing the limit was not always enough;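 also: controls were the assay level and a saturating level of protein; the project sought stronger binding though the title names inhibitors; some compounds called inactive have numbers as strong as hits; positive values seem to mean higher polarization but the record does not say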
Bfl-1 A1 inh – inhibitors of the anti-apoptotic protein A1, read as caspase activation; MEF A1-2A-BIM cells, Caspase-Glo 3/7 luminescence, 3 h; percent of clofoctol response, vehicle zero; caspase activation, % (no concentration beside the values); 330,000 compounds, 0.066% hits;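 active = over half of replicate activation scores above 10%, or exactly half above 10 with the replicate mean above 10; inconclusive = replicate mean below 10 yet half the replicates above 10; inactive = over half of replicates below 10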;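 also: wells of about 30 µL received 50 nL stock; many hits fall short of the cut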
Vif A3G – HIV-1 Vif–A3G interaction blockers – biochemical, TR-FRET, GST-Vif 1-94, biotin-A3G peptide, dose response retest, primary screen (AID 1117319) | inhibition, %; hits with a dose series show IC50 in µM | TR-FRET GST-Vif / biotin-A3G peptide binding; higher % means a stronger effect; test concentration not given here; strong numbers were not always called active | 260,000 compounds, 0.57% hits;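 active = above the screen mean plus three standard deviations and confirmed in dose response; inconclusive = results disagree or hit not tested in dose response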;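 also: Vif residues 1-94 fused to GST binding biotinylated APOBEC3G peptide 110-148; 0% = full assay without inhibitor and 100% = GST in place of GST-Vif; retest series ran down from 100 µM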
An asterisk follows results filed as active; ? = inconclusive; . = no result given.

SMILES	B2AR ag	Ecoli growth	LANA-H2B inh	UCH37 inh	HNF4A DNA FP	Bfl-1 A1 inh	Vif A3G
CC(C)(C)CC(C)(C)NC1=CC(=O)OC12CCCCC2	-2	0.71	2.0	-0.3	-2.8	0.2	-6%
O=[N+]([O-])c1cc(C(F)(F)F)ccc1NCCCCNS(=O)(=O)c1ccc(Cl)cc1	-4	0.68	-4.4	-12	-1.1	0.2	1%
Cc1ccc(CSCc2nnc(SCC(=O)N3CCN(c4ccccc4)CC3)n2C)cc1	-1	0.64	3.9	2.0	0.9	-0.7	2%
COc1ccc(C2CC(=O)c3cnc(NC(=O)c4cccc(OC)c4)nc3C2)cc1 (stereo not drawn)	-5	0.72	3.7	6.5	-2.9	-1.6	4%
O=C(OCC#CCSc1nnc(-c2cccc3ccccc23)o1)c1ccc2ccccc2c1	-10	0.72	-0.3	-14	-1.1	0.3	.
Cc1ccc(C)c(-c2nn(-c3cc(N4CCN(CCO)CC4)ccc3[N+](=O)[O-])c(=O)c3ccccc23)c1	7	0.64	0.2	4.5	-2.3	0.2	0%
Cc1ccccc1CNC(=O)C1CCC(=O)N(CC2CCCCC2)C1 (stereo not drawn)	3	0.71	7.8	0.6	-0.1	-0.6	.
Cc1nn(CCC(=O)NNC(=S)Nc2ccc([N+](=O)[O-])cc2)c(C)c1[N+](=O)[O-]	-3	.	0.4	.	0.4	0.2	17%
CCOC(=O)N1CCN(C(=O)c2nn(-c3ccc(C)cc3)c(=O)c3c2c2ccccc2n3C)CC1	2	0.71	-2.5	-20	0.1	-1.0	-5%
Cc1ccc(Nc2nc(N/N=C/c3c[nH]c4ccccc34)nc(N3CCOCC3)n2)cc1	7	.	-2.9	.	3.2	1.1	2%
O=C(CCCOc1ccc(Cl)cc1Cl)Nc1nnc(C2CC2)s1	5	0.68	0.6	-1.3	-1.2	0.0	.
COC(=O)C(C)Sc1nc2c(cnn2-c2ccc(F)cc2)c(=O)[nH]1 (stereo not drawn)	13	0.69	-3.1	3.6	6.9	0.5	-3%
CCCCNC(=O)Nc1nnc(SCC(=O)OCC)s1	6	0.67	0.2	-0.9	2.3	1.2	18%
O=C(Nc1ccc(Cl)c(Cl)c1)c1ccccc1NC(=O)C1CC=CCC1C(=O)O (stereo not drawn)	7	0.63	-5.0	-3.3	1.7	-2.0	.
COc1cc(C(=O)N2CCN(C(=O)c3cc(-c4ccccc4)n[nH]3)CC2)cc(OC)c1OC	-9	0.71	-2.0	2.2	3.6	-1.3	.
CCOc1ccc(Br)cc1S(=O)(=O)NCc1ccncc1	-1	0.63	2.6	-1.4	-0.2	0.3	-6%
COC(=O)c1cc(C(=O)N2CCN(c3cccc(C)c3C)CC2)cc([N+](=O)[O-])c1	2	0.71	6.0	1.2	2.1	-0.2	-3%
Cc1ccc(S(=O)(=O)N(C)CC(=O)N2CCCCCC2)cc1	-3	0.68	7.7	1.2	1.9	0.6	-11%
CCCS(=O)(=O)N1CCCC(C(=O)NCc2ccco2)C1 (stereo not drawn)	-15	0.72	-6.1	3.4	10	0.2	14%
c1csc(Cc2nn3c(-c4ccncc4)nnc3s2)c1	-4	0.65	3.8	5.2	0.0	0.7	?
O=C(Cn1nnc(-c2ccc(Cl)cc2)n1)NCC1CCCCC1	-1	0.71	5.9	-0.2	-1.3	0.2	0%
COc1ccc2oc(=O)c(C(=O)N3CCCc4ccccc43)cc2c1	-3	0.67	3.4	3.6	2.5	1.1	2%
Cc1ccc(S(=O)(=O)N2CCOCC2)cc1C(=O)NCC1CCCCC1	-7	0.71	6.0	4.8	2.5	1.3	11%
Cc1occc1C(=O)Nc1ccc2c(c1)OCCO2	-5	0.74	-0.3	4.4	0.2	-7.0	2%
COc1ccc(NC(=O)COC(=O)Cn2cnc3ccccc32)cc1	-6	0.64	1.5	0.9	-1.4	0.0	.
SMILES	B2AR ag	Ecoli growth	LANA-H2B inh	UCH37 inh	HNF4A DNA FP	Bfl-1 A1 inh	Vif A3G
O=C(NCC(c1ccco1)N1CCCCC1)c1ccc(COc2ccc(Cl)cc2)cc1 (stereo not drawn)	-3	0.64	.	0.4	1.9	.	3%
Nc1ccc(S(=O)(=O)NC(Cc2ccccc2)C(=O)O)cc1 (stereo not drawn)	-8	0.7	1.7	6.2	-1.3	0.0	.
Cc1cccc(NS(=O)(=O)c2ccc(C(=O)NCCCN3CCCC3=O)cc2)c1C	0	0.63	1.2	3.4	-0.5	-0.7	-2%
CCOC(=O)c1c(C)[nH]c(C(=O)COC(=O)Cn2cc(C(F)(F)F)ccc2=O)c1C	0	0.7	-1.9	0.7	1.4	-0.6	4%
COc1cc(OC)c(OC)cc1/C=N/N(C)c1ccccc1	9	.	2.3	.	-2.2	0.1	1%
Cc1cc(C)n(C(=O)CNC(=O)c2cccc(Br)c2)n1	2	0.67	-0.3	-0.4	-2.5	0.8	.
Cc1nc2cc(NC(=O)NCCCO)ccc2o1	1	0.68	4.0	3.4	-3.3	0.6	?
CC(C)CNC(=S)N1CCN(c2nc(-c3ccc(Cl)cc3)cs2)CC1	2	.	4.4	.	2.8	-0.1	-2%
CSc1ccc(Cl)c(C(=O)OCC(=O)N(C)CCC#N)c1	1	0.71	-0.7	-8.9	-0.7	0.8	-1%
O=C(CNC(=S)N(CCCN1CCOCC1)Cc1cccs1)NCc1ccccc1	-1	0.67	-0.3	-0.3	0.9	0.6	.
CCOC(=O)c1c(C)[nH]c(C(=O)COC(=O)c2c(CC)noc2C)c1C	3	0.73	.	0.8	-0.6	.	-19%
O=C(Cn1c(=O)n(Cc2ccco2)c(=O)c2c3c(sc21)CCCCC3)c1ccccc1	-9	0.7	3.2	5.4	-13	1.1	?
Cc1occc1C(=O)Nc1cccc2ccccc12	1	0.73	1.2	3.4	2.6	-14	0%
CC1CCCC(NC(=O)c2ccc3c(=O)n(CC4CCCO4)c(=O)[nH]c3c2)C1C (stereo not drawn)	10	0.69	0.5	-3.6	-1.9	-0.1	32%
CCOc1ccc(CNC(=O)CCSCc2ccccc2F)cc1OC	3	0.69	6.6	3.0	-2.4	-0.3	11%
O=C(Nc1ccc2c(c1)OCCO2)c1cccc(Cl)c1Cl	10	0.67	-0.2	1.4	0.1	-4.8	-4%
Cc1cc(NC(=O)c2cncc(Br)c2)no1	-6	0.73	0.3	-1.5	0.4	.	73%
Cc1noc(NS(=O)(=O)c2ccc(NC(=O)c3cc(S(=O)(=O)Nc4ccc(F)cc4)ccc3Cl)cc2)c1C	-3	0.64	.	2.1	2.5	.	.
CN1C(=O)c2cccc(NCCCN3C(=O)c4ccccc4C3=O)c2C1=O	-4	0.71	-5.1	-32	-4.7	0.7	-15%
CCOc1cnc(-c2ccc(OC)cc2)o1	-5	0.67	-0.6	5.5	-1.5	-4.9	22%
Cc1cc(Cl)nc(Cl)c1C(=O)NCc1ccc(Cl)cc1	9	0.64	-5.6	4.1	3.3	-0.1	7%
Cc1ccccc1CS(=O)(=O)c1snnc1C	-4	0.68	-4.6	-0.2	0.6	1.3	3%
COc1ccc(-c2ccc3c(c2)c(C#Cc2ccsc2)c(-c2cc(OC)cc(OC)c2)n3C)cc1	4	0.76	-1.0	-36	2.3	-0.1	.
COc1ccc(Cl)cc1C(=O)NNC(=O)c1cc2ccccc2o1	-17	0.71	-0.9	-1.7	-0.7	0.4	.
COc1cc(NC(=O)c2ccc3c(=O)n(Cc4ccco4)c(=S)[nH]c3c2)cc(OC)c1OC	5	0.7	1.0	6.5	-0.4	-0.5	16%

3 compounds from above, arranged by molecular weight, ascending.
SMILES	B2AR ag	Ecoli growth	LANA-H2B inh	UCH37 inh	HNF4A DNA FP	Bfl-1 A1 inh	Vif A3G
O=C(Nc1ccc2c(c1)OCCO2)c1cccc(Cl)c1Cl	10	0.67	-0.2	1.4	0.1	-4.8	-4%
CSc1ccc(Cl)c(C(=O)OCC(=O)N(C)CCC#N)c1	1	0.71	-0.7	-8.9	-0.7	0.8	-1%
Cc1cc(C)n(C(=O)CNC(=O)c2cccc(Br)c2)n1	2	0.67	-0.3	-0.4	-2.5	0.8	.

Next section:
SMILES	B2AR ag	Ecoli growth	LANA-H2B inh	UCH37 inh	HNF4A DNA FP	Bfl-1 A1 inh	Vif A3G
Cc1cc(C)c(C#N)c(OCC(=O)c2ccccc2)n1	-10	0.75	4.7	5.7	-2.7	-0.2	-4%
Cc1ccc(-n2nc3ccc(NC(=O)/C=C/c4ccco4)cc3n2)cc1C	17	0.68	.	-53	-0.8	.	10%
Cc1ccc(-n2c(SCC(=O)N3CCCC3)nc3c(c2=O)SCC3)cc1	.	0.71	8.1	8.9	.	0.2	-6%
CCOc1cccc(CN2CCC(Oc3ccc(C(=O)NCc4ccccn4)cc3)CC2)c1	-8	0.72	-0.9	-1.3	1.2	0.7	.
Cc1nn(CCC(=O)Nc2cccc(C#N)c2)c(C)c1S(=O)(=O)N1CCCCC1	5	0.67	-0.1	-0.2	-1.6	1.0	.
Cc1cc(C)c(S(=O)(=O)N2CCCOC2CNC(=O)C(=O)NCc2cccnc2)c(C)c1 (stereo not drawn)	-2	0.73	0.4	2.6	-0.9	1.7	4%
CS(=O)(=O)c1cccc(C(=O)Nc2ccc(S(=O)(=O)N3CCCCC3)cc2)c1	1	0.71	.	3.2	-1.6	.	2%
Cc1ccc(C)c(NC(=O)CN(C)C(=O)c2cccc(-n3cccc3)c2)c1	0	0.64	-1.1	1.6	-25	-0.3	15µM*
O=C(O)C1C2C=CC(O2)C1C(=O)NCCC1=CCCCC1 (stereo not drawn)	0	0.69	-1.0	1.5	-15	-0.7	?
N#Cc1c(C(F)(F)F)cc(-c2ccccc2)nc1SCC(=O)N1CCOCC1	-10	0.68	1.0	-1.3	0.6	-0.8	1%
O=C(CNC(=O)c1ccccc1F)NCc1ccccn1	-2	.	-0.9	.	-0.6	-0.3	.
Cc1ccc(NC(=O)CCNS(=O)(=O)c2ccc3[nH]c(=O)oc3c2)cc1N(C)C	18	0.69	0.9	3.2	-1.1	-0.7	-5%
Cc1cccc(NC(=O)c2ccc3ccccc3n2)c1C	8	0.66	-3.1	1.6	3.3	0.5	14%
Cc1ccc(NC(=O)CSc2nccn2Cc2ccco2)cc1	2	0.7	-0.5	0.0	-2.8	0.6	1%
O=c1cc(CO)oc(CN2CCCC2)c1O	-2	0.7	2.0	6.4	2.2	0.0	?
CC(C)(C)NC(=O)CCN(/N=C/c1ccc([N+](=O)[O-])o1)C1=NS(=O)(=O)c2ccccc21	-3	.	-1.5	.	4.2	0.1	.
CCCCCSc1nc2c(cnn2-c2ccc(F)cc2)c(=O)[nH]1	-3	0.68	-1.3	3.2	-0.3	1.3	0%
O=C(Nc1cccc(S(=O)(=O)NC2=NCCCCC2)c1)c1cc(-c2ccccc2Cl)nc2ccccc12	9	0.69	-3.8	1.8	0.7	1.1	-11%
CC(C)Nc1nc(NC(C)C)nc(C(N)=O)n1	8	0.7	-1.4	0.4	3.9	-1.0	1%
O=C(COC(=O)c1ccc(S(=O)(=O)N2CCOCC2)cc1)Nc1ccccc1F	1	0.7	-3.0	6.0	-2.1	-0.3	-6%
C/C=C/c1ccc(OCC(=O)Nc2cc(OC)c(OC)c(OC)c2)c(OC)c1	5	0.7	-1.6	-1.4	-3.9	-0.3	-1%
CCC(C)(C(=O)NC1CCCC1)N(C(=O)c1cnccn1)c1ccccc1 (stereo not drawn)	-1	0.72	0.6	5.9	0.6	1.0	0%
Cc1cc(NC(=O)c2cnn3c(C(F)(F)F)cc(-c4ccc(Br)cc4)nc23)no1	-10	0.71	-2.3	-7.1	2.4	0.5	3%
Cc1cc2c3c([nH]c2cc1S(=O)(=O)N1CCC2(CC1)OCCO2)CC(C)(C)CC3=O	0	0.67	-2.2	2.3	-1.8	0.9	.

Screening data as filed in PubChem BioAssay.

Not a hit list; 2.1% or so of the library scored in one or more.
